Compound activity (PubChem)
Sfp PPTase inh – Sfp phosphopantetheinyl transferase inhibition; Potency, µM, inactives show max response, negative = inhibition, most hits filed as inhibitors; hit rate 3.5% among 310,000; Q9F4F7; Biochemical Sfp PPTase activity, qHTS; active = well fitted inhibition curve with a large enough effect; inconclusive = small, poorly fitted or top-dose-only effect, or another doubt; inactive = no such curve, though single readings can be large or run the other way;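 note: the enzyme is Sfp with the accession as filed and its product quenches rhodamine fluorescence; potency is the fitted concentration of half-maximal effect; 0% = enzyme reaction without inhibitor and -100% = no enzyme wells; top concentration of the series not given in the record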
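After 15 min at room temperature with compound, 15 nM Sfp received 5 uM rhodamine-CoA plus 12.5 uM BHQ-2-ybbR (50 mM Hepes pH 7.6, 10 mM MgCl2). Rate came from the fluorescence difference over 30 min, ex 525/em 598 nm.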
D2 ag – agonists of human D2 dopamine receptor (beta-arrestin); activation, % (no concentration beside the values); AID 624465; DiscoveRx PathHunter D2 beta-arrestin, luminescence, 90 min; 100% = 57 uM dopamine signal; P14416; hit rate 0.084% among 360,000; in the data active = activation above about 40%; inconclusive = about 15% to 40%; inactive = below about 15%; note: compound concentration not given in the record; the text of the record calls up to 30% inactive
Target sequence (P14416 whole entry, looked up): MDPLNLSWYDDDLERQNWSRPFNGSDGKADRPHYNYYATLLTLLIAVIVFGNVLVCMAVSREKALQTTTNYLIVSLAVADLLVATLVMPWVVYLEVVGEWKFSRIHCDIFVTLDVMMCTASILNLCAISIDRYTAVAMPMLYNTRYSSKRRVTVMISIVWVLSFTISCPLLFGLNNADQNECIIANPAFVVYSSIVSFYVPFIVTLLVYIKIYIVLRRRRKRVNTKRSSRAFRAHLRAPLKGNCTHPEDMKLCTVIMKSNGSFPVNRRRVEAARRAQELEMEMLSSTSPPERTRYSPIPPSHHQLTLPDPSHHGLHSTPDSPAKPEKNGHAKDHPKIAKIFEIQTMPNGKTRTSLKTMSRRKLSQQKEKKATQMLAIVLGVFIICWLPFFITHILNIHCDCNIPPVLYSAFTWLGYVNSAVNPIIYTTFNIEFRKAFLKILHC
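Agonist mode: compounds alone added to overnight-plated D2 PathHunter cells for 90 min at 37 C, with 57 uM final dopamine (EC100) defining full response. Beta-arrestin recruitment detected by chemiluminescent reagent, read after 1 h at ambient temperature.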
PINK1 modulator – PINK1 expression modulation; Potency, µM (top dose mostly 76.6 µM), inactives show at the top dose activation (PINK1 increase), usual class: activators; AID 624263; PINK1 immunofluorescence, high-content cytometry, 24 h; hit rate 0.2% among 410,000; active = well fitted activation curve with a large enough effect; inconclusive = small, poorly fitted or top-dose-only effect; inactive = flat fitted curve, though single readings scatter; cell line not stated here;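 note: potency is the fitted concentration of half-maximal effect; % of control where 0% means no effect; nearly all actives have a fitted effect of over 65% in size; a mitochondrial uncoupler was the plate control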
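Readout is PINK1 immunofluorescence, quantified alongside mitochondrial, cell and nuclear markers by laser-scanning microplate cytometry. Cells from a stable line were exposed to compound titrations (5 concentrations) for 24 hours, with CCCP controls.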
ClpP mod – qHTS Assay for Activators of ClpP; ATP-dependent Clp protease proteolytic subunit (Bacillus subtilis (strain 168)), P80244; purified B. subtilis ClpP, FRET peptide cleavage, 20 min; Potency, µM (top dose mostly 57.5 µM), for inactives: at the top dose activity change, negative = active; hit rate 1.9% among 340,000; AID 651965, 2013; active = well fitted falling curve with a large enough effect; inconclusive = small, poorly fitted or top-dose-only effect; inactive = no such curve, though single readings can be large or run the other way; note: potency is the fitted concentration of half-maximal effect; the source files actives as falling curves though it sought activators and does not explain the sign; nearly all actives have a fitted effect of over 65% in size; many hits overshoot -100%
Target sequence (P80244 whole entry, looked up): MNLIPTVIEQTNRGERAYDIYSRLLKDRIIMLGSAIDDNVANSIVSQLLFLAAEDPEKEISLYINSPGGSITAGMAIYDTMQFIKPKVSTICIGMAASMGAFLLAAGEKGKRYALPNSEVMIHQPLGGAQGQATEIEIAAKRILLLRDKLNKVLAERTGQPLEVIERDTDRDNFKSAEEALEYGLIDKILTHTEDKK
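FRET quenching reversal measured ClpP activation: 10 microg/mL B. subtilis ClpP at pH 8 with the FRET-FV decapeptide, read at 430 nm after 320 nm excitation. The 20-min minus 0-min signal was scaled between DMSO/no-enzyme wells and ADEP (5.8 microM final).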
gsp antag – antagonists of gsp mutant (McCune-Albright syndrome); gsp-mutant cells, cAMP HTRF, 30 min; control for the full effect not named in the record; Potency, µM (series often up to 76.9 µM), for inactives: at the highest dose activity change, negative = inhibition, hits mostly inhibitors; hit rate 0.4% among 340,000; active = falling curve of any shape with a large fitted effect; inconclusive = falling curve, mostly with a smaller effect; inactive = flat or rising curve; cell line not stated here;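 note: intracellular cAMP measured with PDE inhibitor Ro 20-1724 present during compound exposure; potency is the fitted concentration of half-maximal effect; % is set by controls: 0 for no effect and ±100 for the full control effect; nearly all actives have a fitted effect of over 65% in size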
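HTRF cAMP read-out (cAMP-d2 plus anti-cAMP antibody-K in lysis buffer, 30 min RT). Before lysis, cells are exposed to compounds with […] for 30 min at 37C in DPBS containing Ca/Mg, BSA and Tween 20.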
Menin-MLL FL inh – menin-MLL binding inhibition, fluorescein peptide | Fluorescence polarization, fluorescein-MLL peptide displacement from menin | 290,000 tested, under 10 active | FP activity change, % at 61.4 µM; inconclusive = falling polarisation curve, or a change in total fluorescence; inactive = total fluorescence flat and polarisation flat or rising; no compound was filed as active; the % refers to the polarisation; negative = inhibition;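 note: % of control where 0% means no effect; inhibitors lower the polarisation; unlabelled MLL peptide was the positive control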
gsp agonist – activates gsp, the McCune-Albright syndrome mutation | gsp mutant cells, cAMP HTRF, 30 min; control for the full effect not named in the record | Potency, µM (highest dose often 76.9 µM), for inactives: at the top dose activation (cAMP increase), most hits filed as activators | hit rate 0.13% among 340,000 | AID 624287; active = well fitted activation curve with a large enough effect; inconclusive = small, poorly fitted or top-dose-only effect, or another doubt; inactive = no such curve, though single readings can be large or run the other way; cell line not stated here;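 note: phosphodiesterase inhibitor Ro 20-1724 added with compounds to block cAMP breakdown; potency is the fitted concentration of half-maximal effect; nearly all actives have a fitted effect of over 60% in size; about a fifth of the inactives were tested at one dose only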
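Cells stably selected in G418 were plated at 2000/well, grown 16-24 hr, then given compounds in DMSO with the PDE inhibitor […] (300 uM solution added) for 30 min at 37C; cAMP was read by HTRF.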
Numbers without * were called inactive; ? = inconclusive; · = no result given; & = joins results of further samples; [ ] = another dose, or the depositor's remark.

SMILES	Sfp PPTase inh	D2 ag	PINK1 modulator	ClpP mod	gsp antag	Menin-MLL FL inh	gsp agonist
Cc1ccc(Nc2nnc(SC(C)C(=O)NCC3CCCO3)s2)cc1 (configuration not stated)	·	-1.8	0.6%	0.7%	4%	·	17%
CCOC(=O)c1[nH]cnc1C(=O)Nc1cccc(Cl)c1	-2%	2.2	3.2%	·	2%	1.6	-13%
CCCN(CCC)S(=O)(=O)c1ccc(C(=O)N2CCN(C)CC2)cc1	13%	1.7	-0.1%	1.7%	5%	1.9	10%[15.4 µM]
COc1ccc(C(=O)NCC(=O)OCC(=O)c2ccc3c(c2)NC(=O)CO3)cc1	4%	-6.5	2.5%	·	-1%	-1.7	1%[15.4 µM]
CC1(C(=O)NS(=O)(=O)C2CC2)CCN(C(=O)CSc2ccccc2)C1 (configuration not stated)	·	-1.2	-0.2%	-0.8%	·	·	·
C/C(=N\OCC(=O)N/N=C/c1ccccc1)c1cccs1	0%	-2.4	1.2%[38.3 µM]	-0.5%	-3%	0.0	0%
COC(=O)Cc1cc(=O)n(-c2ccccc2)[nH]1	11%	-0.3	·	-2.9%	-4%	3.8	-12%
CCOc1ccc(C(=O)n2cc(C(=O)OC)c3ccccc32)cc1	-8%	-3.7	5.6%	0.3%	9%	-1.5	-17%[15.4 µM]
CSCC[C@H](NC(=O)OC(C)(C)C)C(=O)NCC1CCC(C(=O)O)CC1 (some centres not stated)	14%	2.7	1.2%	-0.7%	-5%	1.4	?
COc1ccc(CCC(=O)NNC(=S)Nc2cccc(C(C)=O)c2)cc1	8%	-0.4	-0.8%	·	-8%	-10	-17%[15.4 µM]
Cc1cc(C)cc(OCC(=O)OCCN2C(=O)c3ccccc3C2=O)c1	-20%	-2.5	0.4%	-2.6%	-5%	-1.5	3%
COc1ccc(C(=O)Nc2ccnc(-c3cccnc3)n2)cc1	28%	-5.3	-0.8%	-2.7%	4%	0.4	-6%
COC(=O)CSc1nc(N)c(C#N)c(-c2ccc(O)cc2)c1C#N	18%	7.2	0.0%	-4.0%	-9%	-1.1	14%
Cc1c(C(=O)NCc2ccccc2CN2CCCC2)oc2c(F)cccc12	·	-1.8	7.1%	0.7%	11%	·	11%
Cc1ccc(S(=O)(=O)N2CCOCC2)cc1NC(=O)COC(=O)c1cccnc1Cl	11%	-6.4	0.8%	·	23%	-3.1	5%[15.4 µM]
COc1ccc(N2CCN(S(=O)(=O)CCNC(=O)C3CC3)CC2)cc1	·	-4.1	0.5%	·	-3%	·	2%[15.4 µM]
Cc1cccc(C)c1NC1=NC2(CCCCC2)N=C(N)N1	-4%	-0.7	·	-3.3%	3%	-0.1	13%
CCOC(=O)c1c(NC(=O)CSc2nnc(C)c(=O)[nH]2)sc2c1CCCC2	8%	-3.5	-2.3%	-2.4%	-35%	-1.6	-28%
CN(Cc1cccs1)C(=O)CCNS(=O)(=O)c1ccc(Br)cc1	·	7.1	-0.9%	1.1%	-11%	·	?
C=CCn1c(O)c(C2=c3ccccc3=NC2=O)s/c1=N/c1nccs1	-2%	14	5.4%	1.0%	3%	-0.1	-27%
CCc1ccc(OCCNC(=O)c2ccccc2SCc2ccccc2)cc1	11%	-6.8	3.4%	28µM*	?	-1.1	-8%[15.4 µM]
CCCn1c(=S)[nH]c2cc(C(=O)N(CCO)Cc3ccccc3)ccc2c1=O	4%	-3.1	-2.3%	1.1%	-27%	·	-13%
O=C(NC1CCCCC1)N1CCSC1=Nc1ccccc1	-8%	-3.0	0.0%	-0.7%	?	-0.8	?
[O-]/[N+](=C/c1ccccc1)c1ccccc1	·	-2.6	0.0%	0.6%	14%	·	-40%[inhibitor]
NS(=O)(=O)c1ccc(CCNc2ccc(C(F)(F)F)cn2)cc1	13%	-0.4	-1.2%	·	11%	-1.8	-8%[15.4 µM]
Brc1ccsc1/C=N/Nc1ccccc1	·	2.4	12%	-4.5%	-13%	·	-8%[15.4 µM]
COc1ccc(C(=O)O)cc1NCc1cccnc1	2%	-2.0	0.2%	1.8%	0%	-3.5	15%[15.4 µM]
S=C(Nc1cccc(Cl)c1)NC1CC2CCCC(C1)N2C1CCCC1 (configuration not stated)	2%	-2.6	2.7%	1.8%	13%	0.2	-12%
Cc1cccc(-n2c(Cc3cc(=O)[nH]c(=O)[nH]3)nnc2SCC(=O)Nc2cccc(C(F)(F)F)c2)c1	9%	-5.2	1.0%	-4.6%	29%	-5.1	0%
O=C(CSc1nncs1)Nc1ccc2c(c1)OCO2	10%	2.6	-1.5%	-3.0%	5%	-3.7	20%
CN1CC[C@@]2(CCCN(C(=O)c3cccn3C)C2)C1	10%	·	1.0%	·	·	2.5	·
COc1ccc(CCNC(=O)Cc2c(Cl)cccc2Cl)cc1	15%	-4.1	-1.1%	·	·	-3.5	1%[15.4 µM]
O=C(CSc1nc2ccccc2s1)N1c2ccccc2Sc2ccc(C(F)(F)F)cc21	7%	2.0	5.3%	-1.3%	-8%	4.1	0%
COc1ccccc1CNC(=O)C1CCC(CNS(=O)(=O)c2ccccc2)CC1 (configuration not stated)	6%	7.6	-2.4%	0.8%	-2%	-3.0	-24%
COc1ccc(N2C(=O)CC(c3ccc(OC(C)C)cc3)C2=O)cc1 (configuration not stated)	2%	-4.8	-0.5%	-2.9%	3%	-1.4	20%
COc1ccc(-c2ccc(C(=O)N3CCOCC3)c3occc23)c(C)c1	·	7.1	-0.5%	?	·	·	·
CCOC(=O)CSC1=C(C#N)C(c2ccccc2F)C(C(C)=O)=C(C)N1 (configuration not stated)	63µM*	0.2	3.8%[38.3 µM]	-1.3%	-13%	5.0	-28%
CC(CCc1ccco1)NC(=O)CSc1cc(=O)n(C)c2ccccc12 (configuration not stated)	-12%	-1.3	0.1%	-4.0%	-18%	5.8	-67%[inhibitor]
CC[N+]1(C)CCC(=C2c3ccccc3CC(=O)c3sccc32)CC1 (configuration not stated)	1%	0.2	7.7%[38.3 µM]	0.0%	5%	-3.4	-13%
Cc1nnc(SCC(=O)Nc2nsc(-c3ccc(Cl)cc3)n2)s1	-7%	-2.6	-0.9%	-24%	1%	2.6	?
CC(c1ccc(Cl)cc1)n1c(-c2ccc3ccccc3n2)n[nH]c1=S (configuration not stated)	14%	0.0	10%[38.3 µM]	-5.0%	?	0.1	1%
CCc1nc2oc3ccccc3c(=O)c2c(=O)n1-c1ccccc1	8%	-0.4	26%[38.3 µM]	0.1%	-3%	-0.6	-66%[inhibitor]
CCC/C(C)=N/NC(=O)c1ccccc1O	18%	-1.7	2.6%	-23%	-8%	3.8	-29%
O=C(c1cnn(-c2ccccc2)c1)c1ccccc1O	-10%	-0.5	1.7%	·	-7%	6.0	-2%[15.4 µM]
COc1ccc(NC(=O)Cn2nnc(-c3ccccc3NC(=O)C3CC3)n2)cc1	-24%	1.0	3.1%	-1.7%	-6%	5.6	4%
CCN1CCN(CCCNC(=O)c2cc3c(=O)[nH]c4ccccc4c3s2)CC1	0%	-4.1	·	8.9µM*	2%	-1.0	1%
C[C@@H]1CN([C@H](C)CO)C(=O)CCCn2nncc2CO[C@H]1CN(C)Cc1cccc(C(F)(F)F)c1	·	-1.5	-1.9%	-1.0%	·	·	-2%
CS(=O)(=O)c1ccc(C(=O)Nc2nc(-c3ccco3)c(-c3ccco3)s2)cc1	·	0.5	9.0%	-6.5%	-3%	·	28%
CC1CCCN(C(=O)COC(=O)CNC(=O)c2sc3ccccc3c2Cl)C1 (configuration not stated)	·	-5.0	-1.1%	-4.1%	8%	·	32µM*
CN(c1ccc(OCC(=O)N2CCOCC2)cc1)S(=O)(=O)c1ccc(Cl)cc1	?	-0.6	4.2%	·	4%	-1.6	5%
O=C(/C=C/c1ccco1)NC(=S)Nc1cccc(-c2nc3ccccc3s2)c1	·	-3.1	7.4%	-1.4%	-17%	·	1%
COc1cc(CCNc2ccc3nnc(-c4ccccc4)n3n2)cc(OC)c1OC	1%	3.3	8.7%	-6.2%	-6%	1.0	23%
O=C(O)C(CCc1ccccn1)c1ccccc1 (configuration not stated)	·	-2.2	2.6%	·	1%	·	?
CCOC(=O)C1(CCOc2ccccc2)CCN(C(=O)c2cncs2)CC1	-4%	-1.1	0.8%	·	-5%	3.9	5%[15.4 µM]
C/C=C/C=C\C(=O)Nc1cccc(C2=NOC3(C2)C[C@@H](C(N)=O)N(C(=O)c2cc([N+](=O)[O-])cc([N+](=O)[O-])c2C)C3)c1 (some centres not stated)	25µM*	8.4	-0.3%	0.5%	-1%	-0.1	·
Cc1cccc(NC(=O)CC2C(=O)NCCN2C(=O)Nc2ccc(Cl)cc2)c1 (configuration not stated)	2%	-3.4	-1.6%	1.5%	-5%	·	?
CC(=O)OCC(=O)[C@@]1(O)CCC2C3CC(C)C4=CC(=O)C=CC4(C)C3C(O)CC21C (some centres not stated)	3%	·	1.7%	·	·	0.8	·
O=C(CN1CCN(Cc2ccc(F)cc2Cl)C1=O)NCCc1ccc(Cl)cc1	14%	0.3	1.5%&0.4%	0.7%&-1.4%	-12%	1.9	18%
COc1ccccc1-c1cc(C(=O)Nc2ccccc2SC)no1	3%	1.2	7.5%[38.3 µM]	146%	4%	-1.6	-8%
Cc1ccccc1NC(=O)c1ccco1	1%	-4.9	5.4%	-1.1%	2%	-3.9	23%
Remaining list, next part:
SMILES	Sfp PPTase inh	D2 ag	PINK1 modulator	ClpP mod	gsp antag	Menin-MLL FL inh	gsp agonist
CC1CCCN(C(=O)C23CCC(C)(C(=O)C2)C3(C)C)C1 (configuration not stated)	3%	-0.1	12%[38.3 µM]	-1.7%	-4%	-1.5	-52%[inhibitor]
CC/C(=N\NC(=O)CSc1ncccn1)c1ccc2c(c1)OCCO2	14%	-3.0	-1.5%	-2.7%	2%	7.0	-5%
Cn1c2ccccc2c2c(C(=O)NCC3CCCO3)cn(C3CCCC3)c(=O)c21 (configuration not stated)	-17%	-4.2	0.4%	-22%	-12%	-0.9	-33%[inhibitor]
CCNC(=O)c1cccc(NC(=O)c2cc(C3CC3)nc3c2cnn3C(C)C)c1	·	-3.7	-1.6%	·	-11%	·	17%[15.4 µM]

Random draw from the library; any-hit rate near 5.1%.
